# Source: PubChem BioAssay (ICCB-Longwood Screening Facility, Harvard Medical School)
# HCMV NEC inh: inhibitors of HCMV UL50-UL53 interaction, biochemical, HTRF; normalized percent inhibition; inhibition, % (concentration not given with the values); actives 0.15% (n = 190,000); AID 1918969, 2023;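 active means both replicates at 50% or more, plus weaker picks with an unusually low signal ratio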;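 further: stock transfer was 100 nL into about 20 µL; 0% = negative control wells and 100% = wells with untagged competitor protein; inactives centre near -12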
# GIV-Gai inh: inhibitors of GIV peptide binding to Galpha-i3, primary screen, biochemical, fluorescence polarization, FITC-GIV GBA peptide, rat Galphai3; 90 min; stronger effect = lower value; scaled: aluminum fluoride 0%, vehicle 100%; actives 0.42% (n = 210,000); percent of control (FP), % (no concentration beside the values); AID 1224905, 2016; Guanine nucleotide-binding protein G(i) subunit alpha-3 (Rattus norvegicus), P08753;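 active means replicate mean at 85% of control or lower, very high polarization wells dropped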;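 further: wells of about 15 µL received 100 nL stock; the first replicate is given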
# Target sequence (P08753 whole entry, looked up): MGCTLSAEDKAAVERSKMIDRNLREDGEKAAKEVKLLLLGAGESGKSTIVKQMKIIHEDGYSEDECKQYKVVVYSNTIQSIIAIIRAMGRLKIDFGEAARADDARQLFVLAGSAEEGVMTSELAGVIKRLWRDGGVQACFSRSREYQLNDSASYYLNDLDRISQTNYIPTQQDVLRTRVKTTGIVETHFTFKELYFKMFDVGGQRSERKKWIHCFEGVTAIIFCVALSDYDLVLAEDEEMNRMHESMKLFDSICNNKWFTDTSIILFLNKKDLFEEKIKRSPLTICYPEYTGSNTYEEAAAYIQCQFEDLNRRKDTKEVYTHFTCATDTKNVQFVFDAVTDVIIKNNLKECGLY
# Sa growth 42C: S. aureus growth inhibition at 42 and 30 °C, primary screen, LtaS inhibitor project, RN4220, two temperatures. OD600, 20 h, 42 °C; stronger effect = lower value. relative growth, % (test concentration not listed). actives 0.53% (n = 170,000);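 active means growth at 42 °C up to 50% and 20 or more points under that at 30 °C, or under 10% at both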;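 further: 300 nL library stock went into each well; scaled to the means of positive and negative controls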
# Sa growth 42C second temp: also measured in Sa growth 42C; calls as there; relative growth, %; measured here: growth at 30 °C;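 optical density after 20 h as mean of two plates; 100% = untreated growth and lower means inhibition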
# Active calls of the source: *; / = not tested or not shown; & = joins results of further samples.
item	smiles	HCMV NEC inh	GIV-Gai inh	Sa growth 42C	Sa growth 42C second temp
1	CCOC(=O)C(C)Oc1ccc2c(=O)c(-c3ccc(OC)c(OC)c3)c(C(F)(F)F)oc2c1 (centres undefined)	-8	97	/	/
2	COc1ccc(CCNC(=O)c2ccc3c(c2)N(Cc2ccc(F)cc2)C(=O)CS3)cc1OC	/	102	104	98
3	COC(=O)c1ccccc1NC(=O)Cn1c(=O)c2cccn2c2ccc(F)cc21	-10	104	/	/
4	Cc1c(-c2nc(-c3ccc(Cl)cc3)no2)sc2ncn(CC(=O)N(C)c3ccccc3)c(=O)c12	21	106	/	/
5	Cc1ccc(CC(C#N)Sc2nnc(-c3ccc(F)cc3)n2CC2CCCO2)cc1 (centres undefined)	-1	/	99	95
6	CC(NC=C1C(=O)OC(C)(C)OC1=O)C(=O)O (centres undefined)	/	98	91	96
7	Cc1nc(-c2ccc(F)cc2)sc1CCNC(=O)Cc1ccc(F)cc1	/	106	82	89
8	O=C(O)CC1(CC(=O)N2CCN(c3ccccc3)CC2)CCCC1	-26	/	80	98
9	CCOC(=O)c1cc(NC(=O)C2C3C=CC(O3)C2C(=O)O)cc(C(=O)OCC)c1 (centres undefined)	/	95	100	82
10	COc1ccccc1N(CC(=O)NCCSc1ccccc1)S(=O)(=O)c1ccc(C)cc1	-22	97	102	82
11	CCN1C(=O)C2(/C(=C(/O)c3ccc(F)cc3)C(=O)C(=O)N2CCN2CCOCC2)c2ccccc21 (centres undefined)	-13	99	92	82
12	COC(=O)Cc1[nH]n(-c2ccc(OC)cc2)c(=O)c1C(C)=NC(C)(C)C	-14	102	107	95
13	CN(CCCNC(=O)CCc1nnc2n(Cc3ccccc3)c(=O)c3ccccc3n12)Cc1ccccc1	2	104	/	/
14	CCOC(=O)C(C#N)=C1C=CN(c2ccccc2)C=C1	-49	99	111	101
15	CC1CCN(S(=O)(=O)c2ccccc2)CC1	5	101	115	88
16	CCN(CC)S(=O)(=O)c1ccc2nnn(OCC(=O)NCc3ccccc3OC)c2c1	-32	/	80	81
17	CCOC(=O)c1[nH]c2c(c1Cc1ccccc1)C(=O)CC(c1ccc(Cl)cc1)C2 (centres undefined)	-8	104	110	99
18	O=C(COC(=O)CSc1nc2ccccc2o1)NC1CC1	9	/	92	96
19	Cc1onc(-c2c(F)cccc2Cl)c1C(=O)N1CC(Oc2ccc(Cl)cc2)C1	-30	103	103	86
20	FC(F)(F)c1ccc(CSc2nccc(-c3cccnc3)n2)cc1	-40	99	96	86
21	O=C1CCCc2cc(S(=O)(=O)NCC3CCC(C(=O)NCCC4=CCCCC4)CC3)ccc2N1 (centres undefined)	-21	109	/	/
22	Cc1nnc(N2CCCC(C(=O)NCc3cccnc3)C2)c2nn(-c3ccc(Cl)cc3)c(C)c12 (centres undefined)	6	99	/	/
23	COc1ccc(N(CC(=O)Nc2cccc(C(C)=O)c2)S(=O)(=O)c2ccccc2)c(OC)c1	-11	99	92	84
24	O=C1CCCc2oc(=O)ccc21	10	/	99	102
25	Cc1nn(-c2ccc(F)cc2)c(-n2cccc2)c1C(=O)N1CCN(c2ccccc2F)CC1	/	102	103	88
26	O=C(COc1ccc(Br)cc1)OCC(=O)c1ccccc1	-8	/	92	83
27	Cc1ccc(CNc2ncc3c(=O)[nH]ccc3n2)cc1	-32	102	/	/
28	CN1CCSc2ccc(C(=O)NCc3ccccc3)cc21	-12	102	105	91
29	CC(C)CCOc1ccc(C2N=C(N)Nc3nc4ccccc4n32)cc1 (centres undefined)	-4&-32	105&105	63	74
30	COc1ccc(S(=O)(=O)Nc2cccc(-c3ccc(N4CCCCCC4)nn3)c2)c(OC)c1	/	108	124	95

# Compounds listed so far containing sulfur, in the order listed:
item	smiles	HCMV NEC inh	GIV-Gai inh	Sa growth 42C	Sa growth 42C second temp
2	COc1ccc(CCNC(=O)c2ccc3c(c2)N(Cc2ccc(F)cc2)C(=O)CS3)cc1OC	/	102	104	98
4	Cc1c(-c2nc(-c3ccc(Cl)cc3)no2)sc2ncn(CC(=O)N(C)c3ccccc3)c(=O)c12	21	106	/	/
5	Cc1ccc(CC(C#N)Sc2nnc(-c3ccc(F)cc3)n2CC2CCCO2)cc1 (centres undefined)	-1	/	99	95
7	Cc1nc(-c2ccc(F)cc2)sc1CCNC(=O)Cc1ccc(F)cc1	/	106	82	89
10	COc1ccccc1N(CC(=O)NCCSc1ccccc1)S(=O)(=O)c1ccc(C)cc1	-22	97	102	82
15	CC1CCN(S(=O)(=O)c2ccccc2)CC1	5	101	115	88
16	CCN(CC)S(=O)(=O)c1ccc2nnn(OCC(=O)NCc3ccccc3OC)c2c1	-32	/	80	81
18	O=C(COC(=O)CSc1nc2ccccc2o1)NC1CC1	9	/	92	96
20	FC(F)(F)c1ccc(CSc2nccc(-c3cccnc3)n2)cc1	-40	99	96	86
21	O=C1CCCc2cc(S(=O)(=O)NCC3CCC(C(=O)NCCC4=CCCCC4)CC3)ccc2N1 (centres undefined)	-21	109	/	/
23	COc1ccc(N(CC(=O)Nc2cccc(C(C)=O)c2)S(=O)(=O)c2ccccc2)c(OC)c1	-11	99	92	84
28	CN1CCSc2ccc(C(=O)NCc3ccccc3)cc21	-12	102	105	91
30	COc1ccc(S(=O)(=O)Nc2cccc(-c3ccc(N4CCCCCC4)nn3)c2)c(OC)c1	/	108	124	95

# Remaining list, next part
item	smiles	HCMV NEC inh	GIV-Gai inh	Sa growth 42C	Sa growth 42C second temp
31	CC(O)CNCCOc1ccc2ccccc2c1Cl (centres undefined)	-41	109	102	98
32	CCN(CC)Cn1c(=S)oc2ccc(Cl)cc21	4	/	64	33
33	COc1cc(NC(=O)Cn2c3ncccc3c(=O)n2-c2ccc(C)cc2)cc(OC)c1	5	110	/	/
34	CCn1ccc2cc(S(=O)(=O)N3CCCN(C(=O)Nc4ccc(Cl)cc4)CC3)ccc21	-2	102	/	/
35	Cc1noc(C)c1COc1cc2ccccc2cc1C(=O)NCc1ccccn1	-48	/	97	91
36	Cc1c2cnn(CC(=O)Nc3cccc(C(F)(F)F)c3)c(=O)c2c(C)n1Cc1ccccc1Cl	-14	102	101	93
37	CCN(CCCNC(=O)c1ccc(Sc2ccc(F)cc2)c(NC(C)=O)c1)c1ccccc1	/	96	106	85
38	S=C(NCCNc1ccccn1)NC1CC1	2	/	83	97
39	COc1ccc(NCc2nc3ccccc3n2CCOc2ccc(C)cc2)cc1	-16	106	90	68
40	O=C(Cn1[nH]c(=O)c2ccccc2c1=O)NCCN1C(=O)S/C(=C\c2ccccc2)C1=O	-44	/	90	86
41	CCCOC1(C(F)(F)F)NC(=O)N(c2cccc(Cl)c2)C1=O (centres undefined)	-11	104	88	98
42	Cc1ccccc1C1C(C#N)=C(N)SC(N)=C1C#N	-13	/	64	67
43	CCCN1C(C(=O)c2ccccc2)=C(OC(=O)c2ccc(C)cc2)c2ccccc2S1(=O)=O	-22	102	97	86
44	Cc1ccc(N(CC(=O)N2CCOCC2)S(=O)(=O)c2ccccc2)cc1	-8	100	98	104
45	C(=C\c1cccs1)/C1=NN(c2ccccc2)C(c2cccs2)C1 (centres undefined)	-5	182	117	94
46	Cc1cccc(N(C)S(=O)(=O)c2c(C(=O)N3CCCCCC3)c(C)n(C)c2C)c1	/	99	99	82
47	O=C1/C(=C/c2cccs2)CN(Cc2ccccc2)C/C1=C\c1cccs1	-20	107	103	86
48	CN(C)CCN(Cc1ccco1)C(=O)c1oc2ccccc2c1NC(=O)c1cccc(F)c1	/	104	143	99
49	CCOc1ccc(-c2c(C)nn3c(C)c(C(=O)NCc4ccc(C)o4)cnc23)cc1OCC	/	103	97	95
50	C=CCOc1ccc(/C=C2\C(=O)NC(=S)N(c3ccc(OC)cc3)C2=O)cc1OC	-28	114	/	/
51	Cn1ncc(C#N)c1-n1cccc1	/	98	103	84
52	CN(Cc1ccccc1)S(=O)(=O)c1ccc2c(c1)sc(=O)n2CC(=O)N1CCCC1	-22	102	/	/
53	O=c1cc(-c2ccccc2)c2c(=O)n(-c3ccccc3)[nH]c2[nH]1	-92	97	96	92
54	N#CC(C#N)=C1C=C(c2cccs2)Oc2ccccc21	-15	/	88	93
55	N#Cc1nc(-c2ccccc2F)oc1N1CCc2ccccc2C1	0	/	94	85
56	Cc1cc(N)n(-c2ccc(F)cc2)n1	-14&-20	96	120	88
57	Cc1cc(=O)[nH]c2nnc(SCC(=O)N3CC(C)OC(C)C3)n12 (centres undefined)	-11	101	75	81
58	CCn1c(CN(c2ccc(F)cc2)S(C)(=O)=O)nnc1SCc1nnc(-c2ccccc2)o1	-19	109	/	/
59	CCN(C(=O)CSc1nc2ccccc2o1)C1=CCCC1	-22	/	94	82
60	Cc1ccc(C)c(NC(=O)C(=O)NCCc2csc(-c3cccc(F)c3)n2)c1	/	101	98	90
61	O=S(=O)(CCc1nc2ccccc2s1)c1ccc(Cl)cc1	-8	98	108	83
62	CN1C(N)=NC(=O)C1(CO)CO	-9	92	85	103
63	Cc1ccc2cc(CN(CC3CCCO3)C(=O)C(F)(F)F)c3nnnn3c2c1C (centres undefined)	-10	100	120	87
64	Cc1c(NC(=O)Nc2ccc3c(c2)OCO3)c(=O)n(-c2ccccc2)n1C	8	108	/	/
65	CCCCNCc1cccn1-c1sc2c(c1C#N)CCCC2	-12	104	97	82
66	COc1ccccc1N1CCN(C(CNS(=O)(=O)c2c(C)cc(C)cc2C)c2cccnc2)CC1 (centres undefined)	-23	106	94	78
67	Nc1nnc(SCc2cccc(S(=O)(=O)N3CCOCC3)c2)s1	-15	/	98	93
68	O=C(O)CCCC(=O)Nc1ccc2c(c1)C(=O)OC2	-25	96	92	81
69	Cc1ccc(CSC2=NS(=O)(=O)c3ccccc32)cc1	/	103	101	87
70	O=C1ON=C(c2ccccc2)/C1=C/c1ccco1	/	96	101	80
71	COc1ccc(-n2c(SCC(N)=O)nc3c(c2=O)SCC3)cc1	-52	106	104	95
72	COc1ccc(/C=N/Nc2nc(-c3ccc(OC)cc3)c(C)s2)cc1	-8	108	99	90
73	CS(=O)(=O)N1CCc2cc(C(=O)Cn3cc(C(F)(F)F)ccc3=O)ccc21	-10	/	93	97
74	Cc1nnc2c(N3CCN(c4ccccc4F)CC3)nc3ccc(C(=O)c4ccccc4)cc3n12	/	103	87	88
75	CC1=C(C(=O)Nc2cc(Cl)ccc2C)C2(CCN(S(C)(=O)=O)CC2)OC1=O	-29	111	/	/
76	OC1CCC(NCC(O)COCc2ccccc2Cl)CC1 (centres undefined)	-29	/	96	89
77	Cc1nc2sccn2c(=O)c1S(=O)(=O)NCc1ccc(F)cc1	/	110	110	85
78	CCCn1c(=O)ccn(-c2ccccc2C)c1=O	-13	98	94	83
79	CCN(C1=NC2CS(=O)(=O)CC2S1)c1ccc(OC)cc1 (centres undefined)	/	107	125	86
80	CCOC(=O)N1CCN(S(=O)(=O)c2cc3[nH]c4c(c3cc2CC)C(=O)CC(C)(C)C4)CC1	-38	98	96	79
81	COc1ccc(CCNC(=O)c2cnc3ccc(C)cn3c2=O)cc1	-24	100	110	82
82	Cn1cnc2cc(NCc3cccs3)ccc21	-6	98	91	84
83	Cc1cccc(N2C(=O)NC(=O)/C(=C\c3cn(CC(=O)NCc4ccco4)c4ccccc34)C2=O)c1	-10	101	123	80
84	CC1CCCCN1C(=O)CSc1nc(-c2ccc(F)cc2)cc(C(F)(F)F)n1 (centres undefined)	-14	103	96	85
85	Cc1cc(C)c(NC(=O)CN(C)S(=O)(=O)c2ccc3c(c2)c(=O)n(C)c(=O)n3C)c(C)c1	-13	102	102	89
86	CCc1ccc2nc(N3CCC(C(=O)NC(C)C)CC3)sc2c1	2	103	100	92
87	O=C(O)c1cccc(-c2ccc(/C=c3/sc4nc5ccccc5n4c3=O)o2)c1	/	289	93	46
88	Cc1nc(C)c(C(=O)N2CCN(S(=O)(=O)c3c(C)nn(Cc4ccccc4)c3C)CC2)s1	15	108	/	/
89	CC(C)(C)c1ccc(C(=O)Nc2ccc(NC(=O)c3ccc(Br)o3)cc2)cc1	-14	101	96	94
90	O=C(Cc1ccccc1)N1CCCCCC1	8	107	98	118

# Continuation.
item	smiles	HCMV NEC inh	GIV-Gai inh	Sa growth 42C	Sa growth 42C second temp
91	CCS(=O)(=O)N1CCC(C(=O)NCc2ccc(F)cc2Cl)CC1	/	101	125	88
92	COc1cccc(C(C(F)(F)F)P(C)(=O)O)c1 (centres undefined)	/	109	103	86
93	CCN1CCN(C(=O)CCn2cnc3oc(C)c(C)c3c2=O)CC1	-21	107	/	/
94	O=C(C1CC(c2ccccc2O)=NO1)N1CCCC1 (centres undefined)	-7	98	100	74

# Single records, from the list above. Order of screens: HCMV NEC inh, GIV-Gai inh, Sa growth 42C, Sa growth 42C second temp
# `Cc1nc(-c2ccc(F)cc2)sc1CCNC(=O)Cc1ccc(F)cc1` reads /, 106, 82, 89
# `O=C1ON=C(c2ccccc2)/C1=C/c1ccco1` reads /, 96, 101, 80

# Not a hit list; 0.82% or so of the library scored in one or more.
